KCNQ2 block: KCNQ2 potassium channel inhibitors, primary screen, cell-based, CHO-K1, FluxOR thallium flux, B-score (AID 2156); 310,000 compounds, 1.1% hits; 20 min; active compounds read low; only compounds with negative scores are shown here; some inactives read as strong as hits; B-score at 10 µM;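 active = fluorescence ratio B-score at most minus 3 library SDs, with starting brightness B-score within 2 library SDs, cut at about -5.5 in these data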
Target sequence (O88943 whole entry, looked up): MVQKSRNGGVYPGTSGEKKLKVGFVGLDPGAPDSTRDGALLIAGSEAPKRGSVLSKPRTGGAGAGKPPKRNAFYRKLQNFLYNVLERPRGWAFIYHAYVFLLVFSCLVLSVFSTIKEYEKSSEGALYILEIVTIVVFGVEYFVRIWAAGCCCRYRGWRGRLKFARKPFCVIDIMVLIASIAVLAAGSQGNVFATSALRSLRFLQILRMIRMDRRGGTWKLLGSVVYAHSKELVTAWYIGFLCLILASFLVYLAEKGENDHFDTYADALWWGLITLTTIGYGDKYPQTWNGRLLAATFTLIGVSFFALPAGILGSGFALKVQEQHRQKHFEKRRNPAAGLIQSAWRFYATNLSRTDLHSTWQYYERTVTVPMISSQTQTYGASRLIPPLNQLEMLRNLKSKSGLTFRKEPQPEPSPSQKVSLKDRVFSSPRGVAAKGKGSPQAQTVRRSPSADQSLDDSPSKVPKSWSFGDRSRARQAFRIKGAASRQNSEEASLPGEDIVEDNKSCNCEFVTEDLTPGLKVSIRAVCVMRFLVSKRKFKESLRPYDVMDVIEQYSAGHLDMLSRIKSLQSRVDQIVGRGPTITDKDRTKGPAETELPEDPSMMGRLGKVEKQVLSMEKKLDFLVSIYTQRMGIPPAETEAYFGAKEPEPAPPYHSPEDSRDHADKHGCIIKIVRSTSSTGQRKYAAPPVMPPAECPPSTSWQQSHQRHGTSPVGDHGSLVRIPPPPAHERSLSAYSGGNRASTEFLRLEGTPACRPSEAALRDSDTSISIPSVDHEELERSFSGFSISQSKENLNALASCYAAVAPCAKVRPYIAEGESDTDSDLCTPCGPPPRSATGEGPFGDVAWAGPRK
KCNQ2 block baseline: second read-out of KCNQ2 block, no call of its own (marks repeat the call); B-score; measured here: initial fluorescence intensity artifact check;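 brightness before thallium and not channel activity; 0 = typical well and far values either way flag optical interference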
An asterisk follows results filed as active; i = inactive. Some of the compounds tested; count on the stated rates, not on these rows.

mol,KCNQ2 block,KCNQ2 block baseline
O=C(COc1ccc(Cl)cc1Cl)NCC(=O)N/N=C/c1c[nH]c2ccccc12,i,0.3
COc1cccc(/C=N/n2c(-c3cc(C)[nH]n3)n[nH]c2=S)c1OC,i,1.49
O=C1CC(N2CCN(c3ccc(S(=O)(=O)N4CCCC4)cc3)CC2)C(=O)N1c1ccc(F)cc1 (configuration not stated),i,0.48
Cc1cccc(C)c1NC(=O)CN(C)C(=O)/C=C/c1cccs1,i,1.51
Cc1nn(C)c(C)c1/C=C/C(=O)O,i,2.35
Cc1c(Cl)cccc1NC(=S)Nc1ccc2[nH]c(=O)[nH]c2c1,i,0.7
Cc1ccc(C(=O)Nc2cc(Cl)ccc2-n2cncn2)o1,i,1.26
CN1CCN(C(=S)NC(=O)c2ccc(Br)cc2)CC1,i,0.26
Cc1cc(Cl)ccc1N(CC(=O)N=Nc1c(O)[nH]c2ccccc12)S(C)(=O)=O,i,-0.3
[O-][N+]12CC[N+]([O-])(CC1)c1ccccc12,i,-2.24
CCOC(=O)N1CCC(=NNC(N)=O)CC1,i,1.26
Cn1nc(-c2ccc(Cl)cc2)c2cc(C(=O)NCCCN3CCOCC3)sc21,i,0.01
COc1cc(CN2CCC(Cc3ccccc3)CC2)c([N+](=O)[O-])cc1OC,i,-1.1
CN(C(=O)c1ccccc1)c1ccccc1C(=O)NCCc1ccccc1,i,0.28
COc1ccc(-c2cc(C(=O)N/N=C(\C)c3cccnc3)c3cc(C)ccc3n2)cc1OC,i,-1.92
Cc1ccc(Cl)cc1NC(=S)Nn1cnnc1,i,-0.54
Nc1c(N(CCC2=CCCCC2)C(=O)c2ccc([N+](=O)[O-])o2)c(=O)[nH]c(=O)n1Cc1ccccc1,i,1.09
CC(C)(C)C(=O)Nc1ccnn1C1CCN(C(=O)c2ccc(Cl)cc2F)CC1,i,0.02
COc1ccc(N2CCN(C3CCCN(Cc4ccc(F)c(F)c4)C3)CC2)cc1 (configuration not stated),i,0.55
CCC1=C(OC(=O)N(CC)CC)N2C(=O)OC(=NCC(=O)OC)[C@]2(C)[C@H]2C1=CC[C@H]1C(=O)N(CC)C(=O)[C@H]12,i,0.33
Clc1c(CSc2nc3ccccc3o2)nc2ccccn12,i,-0.27
CCOC(=O)c1oc2cc(C)cc(O)c2c(=O)c1-c1csc(C)n1,i,-0.28
CC(=O)Oc1ccc(C(=O)N2c3ccccc3NC(=O)C2C)cc1 (configuration not stated),i,-0.39
CC(C)c1ccc(OCc2cccc(C(=O)N/N=C/c3cccnc3)c2)cc1,i,-3.3
O=C(COc1ccc(C(=S)N2CCOCC2)cc1)N1CCOCC1,i,-0.45
O=C(C1CC1)N(Cc1nc2ccccc2c(=O)[nH]1)Cc1cccs1,i,0.97
Cc1ccc(F)cc1NC(=O)C1CCN(c2cnccn2)CC1,i,-0.11
CC1CCN(S(=O)(=O)c2ccc3c(c2)N(CC(=O)NCCCN2CCCCC2C)C(=O)CS3)CC1 (configuration not stated),i,0.16
CC1CCc2sc(C(=O)OCC(=O)NC(C)C)cc2C1 (configuration not stated),i,1.15
COC(=O)CCCCCNc1ccc(C(=O)OC)cc1N,i,1.01

Shown with values ahead of the structure: 2 of the compounds above.
KCNQ2 block	KCNQ2 block baseline	SMILES
i	0.7	Cc1c(Cl)cccc1NC(=S)Nc1ccc2[nH]c(=O)[nH]c2c1
i	0.28	CN(C(=O)c1ccccc1)c1ccccc1C(=O)NCCc1ccccc1

(cont.)
mol,KCNQ2 block,KCNQ2 block baseline
CC(Oc1ccc(Br)cc1Br)C(=O)Nc1cccnc1Cl (configuration not stated),i,-1.16
Cc1cc(NC(=O)Nc2cccc(Cl)c2)n(-c2ccccn2)n1,i,1.34
COc1ccc(Cl)cc1NC(=O)C(OC)c1ccccc1 (configuration not stated),i,0.14
Cc1ccc(Cl)cc1N1CCN(C(=O)c2cc3c(=O)n(C)c4ccccc4c3n2C)CC1,i,-2.2
COc1cccc(Nc2cc(C)nc3ccccc23)c1,i,-0.33
O=C(COC(=O)Cc1cccc(C(F)(F)F)c1)NC1CCS(=O)(=O)C1 (configuration not stated),i,0.02
CCOC(=O)c1c(CSc2ccc(CC)cc2)oc2ccc(O)c(CN(C)C)c12,-5.81*,-0.03*
O=S(=O)(Cc1ccccc1)N1CCCc2ccccc21,i,-0.03
COc1ccccc1N=Nc1[nH]c2ccc(C)cc2c1O,i,0.22
CCC(=O)Nc1nc(N)n(-c2ccccc2)n1,i,0.34
O=C(NCCc1ccccc1)C1CC(=O)N(C2CCCC2)C1 (configuration not stated),i,-0.35
COc1ccc(/C=N/Nc2nc(NCc3ccco3)nc(Nc3ccc(OC)cc3)n2)cc1,i,0.34
O=C(/C=C/c1cccc([N+](=O)[O-])c1)n1cnc2ccccc21,i,-1.06
COc1ccc(C(CNC(=O)C(CCSC)NC(=O)c2ccccc2Cl)N2CCOCC2)cc1 (configuration not stated),i,0.04
Cc1cc(C)c2cc3c(ccn3C3OC[C@H](O)[C@H](O)[C@H]3O)cc2n1 (some centres not stated),i,2.68
COc1ccc2oc(-c3ccco3)cc(=O)c2c1,i,-1.84
CN(CCc1ccccc1)C1CCCN(S(=O)(=O)c2cccc(F)c2)C1 (configuration not stated),i,1.81
COc1cccc(CNc2ccc3c(c2)CCC3)c1,i,-2.15
O=C(O)CCc1nn2c3ccccc3n(Cc3ccccc3)c2nc1=O,i,0.04
Cc1cccc(NC(=O)CSc2ccc(-c3cccnc3)nn2)c1,i,0.09
O=c1c2ccccc2c(C=Nc2ccc(Cl)cn2)c(O)n1-c1cc(Cl)ccc1N1CCOCC1,i,-0.57
CCC(=O)N1CCN(c2ccc(NC(=O)c3ccc([N+](=O)[O-])o3)cc2Cl)CC1,i,0.6
O=C(c1ccccc1)c1ccc(OCC(O)CNCc2ccc(F)cc2)cc1 (configuration not stated),i,0.47
CC1SCC(NC(=O)c2ccc(Cl)cc2)CS1 (configuration not stated),i,2.4
Cc1ccc(N2C(=O)c3ccccc3C2C(=O)c2cc(C)ccc2O)cc1 (configuration not stated),i,-0.46
O=C(CSc1nnc(Cc2ccccc2)o1)c1cc(F)ccc1F,i,1.2
Cc1ccc(/C=C/C(=O)NCCc2c[nH]c3ccccc23)o1,i,-0.14
CCc1ccc(-c2cc3c(=O)n(CC(=O)NCCCN4CCN(C)CC4)ncn3n2)cc1,i,0.44
O=C(COc1ccc(Cl)cc1Cl)NCCSc1ccc(Cl)cc1,i,0.52
CCN(CC)S(=O)(=O)c1ccc(C(=O)N2CCN=C2SC)cc1,i,-0.62
CC(Oc1cc2oc(=O)c3c(c2cc1Cl)CCC3)C(=O)NCc1cccnc1 (configuration not stated),i,0.8
Cn1cc(S(=O)(=O)NC2CCCCCC2)c(=O)n(C)c1=O,i,-1.4
COc1ccc(C(=O)NC(=S)NNC(=O)c2ccc(NC(C)=O)cc2)cc1Br,i,1.77
Cc1csc(NC(=O)C2CCCN(S(=O)(=O)c3cnc[nH]3)C2)n1 (configuration not stated),i,0.08
COc1ccc(NC(=S)N2CCC(NC(=O)c3ccco3)CC2)cc1,i,-1.18
Cc1nc(Cl)c(N=Cc2cccc([N+](=O)[O-])c2)c(Cl)n1,i,-0.34
CC(=O)Nc1ccc(S(=O)(=O)N(Cc2cccnc2)Cc2cc3ccccc3[nH]c2=O)cc1,i,0.85
COc1ccc(C2/C(=C(\O)c3ccc4c(c3)OCCO4)C(=O)C(=O)N2Cc2ccco2)c(OC)c1 (configuration not stated),i,-0.81
N#CC1=C(N)NC(=S)C(C(N)=O)C1c1ccc([N+](=O)[O-])cc1 (configuration not stated),i,1.21
CC(c1ccccc1)N1C(=O)C2C3C=CC(C4CC34)C2C1=O (configuration not stated),i,1.36
CCc1ccc2nc(Nc3ccc(OC)cc3OC)c(C#N)cc2c1,i,-0.23
CCOc1ccc(Cn2ccnc2)cc1[N+](=O)[O-],i,-0.29
CCNC(=S)N(Cc1ccco1)Cc1cc2cc3c(cc2[nH]c1=O)OCCO3,i,-0.03
O=C(Nc1nccs1)c1ccc2c(=O)n3c(nc2c1)CCCCC3,i,-1.66
CCCCOc1cccc(C(=O)Nc2ccc(NC(=O)c3cccs3)cc2)c1,i,1.69
O=C(Nc1ccc(F)cc1)C(NC1CCCCC1)c1ccccc1 (configuration not stated),-5.96*,-0.45*
CC(C)(C)C(=O)Nc1cccc(-c2nc3ccccc3c(=O)o2)c1,i,0.7
Cc1ccc(Cn2cc(S(=O)(=O)c3ccc(C(C)C)cc3)c(=O)c3cc4c(cc32)OCO4)cc1,i,0.72
CCn1c(CC(=O)Nc2ccccc2F)nnc1SCC(=O)NC1CCCCC1,i,1.32
NCCCC[C@H]1CN=C(N)N1CCCCC1CCCCC1,i,0.4
COc1cccc(N2CCN(c3ccc4nnc(CCC(=O)Nc5ncccc5C)n4n3)CC2)c1,i,-1.52
NNc1nc(NCc2ccccc2)nc(N2CCOCC2)n1,i,1.61
CCOc1ccc(-n2c(-c3ccccc3)c[n+]3c2CCC3)cc1,i,0.1
Cc1cc(C)cc(NC(=O)COC(=O)CN=C2NS(=O)(=O)c3ccccc32)c1,i,-1.21
O=C(/C=C/N1CCOCC1)c1coc2ccccc12,i,1.26
CCOc1ccc(S(=O)(=O)Nc2cc(C)ccn2)c2ccccc12,i,-0.31
O=C(Nc1ccc([N+](=O)[O-])cc1)C(Cc1ccccc1)N1C(=O)c2cccc3cccc(c23)C1=O (configuration not stated),i,0.01
CC(C)COC(=O)Cc1c(O)c2ccccc2[nH]c1=O,i,-0.18
Cc1ccccc1OCCOc1cccc(/C=N/NC(=O)Cc2nnc(N)s2)c1,i,0.01
COc1ccc(C2CC(c3ccccc3)=NN2C(=O)COC(=O)c2cc(S(=O)(=O)N3CCOCC3)ccc2F)cc1 (configuration not stated),i,-1.06

Arranged by the number under KCNQ2 block baseline (high to low): 5 from the list above.
mol,KCNQ2 block,KCNQ2 block baseline
CCCCOc1cccc(C(=O)Nc2ccc(NC(=O)c3cccs3)cc2)c1,i,1.69
NNc1nc(NCc2ccccc2)nc(N2CCOCC2)n1,i,1.61
CC(c1ccccc1)N1C(=O)C2C3C=CC(C4CC34)C2C1=O (configuration not stated),i,1.36
O=C(/C=C/N1CCOCC1)c1coc2ccccc12,i,1.26
Cc1cc(C)cc(NC(=O)COC(=O)CN=C2NS(=O)(=O)c3ccccc32)c1,i,-1.21

Looked up above.
Result of NNc1nc(NCc2ccccc2)nc(N2CCOCC2)n1 under KCNQ2 block baseline: 1.61
Result of COc1ccc(C2CC(c3ccccc3)=NN2C(=O)COC(=O)c2cc(S(=O)(=O)N3CCOCC3)ccc2F)cc1 (configuration not stated) under KCNQ2 block baseline: -1.06

Other records.
mol,KCNQ2 block,KCNQ2 block baseline
CCn1c(=O)c([N+](=O)[O-])c(NCCCn2ccnc2)c2ccccc21,i,2.33
Cc1ccc(NC(=O)c2ccco2)cc1NC(=O)CSc1nnc(-c2cccs2)n1C,i,-1.11
Cc1ccc(CNS(=O)(=O)c2ccc3c(c2)OCCO3)cc1,i,0.15
c1ccc(-c2cc3c(-n4cccc4)ncnc3o2)cc1,i,4.16
O=C(CN(Cc1ccccc1)S(=O)(=O)c1ccc(Br)cc1)NCC1CCCO1 (configuration not stated),i,-1.07
Cc1oc(-c2cc(F)ccc2F)nc1CN1CCN(c2cnccn2)CC1,i,-1.53
CC1CC(C)CN(S(=O)(=O)N2CCCC(C(=O)NCCc3ccc(Cl)cc3)C2)C1 (configuration not stated),i,0.69
O=C(NN1C(=O)/C(=C/C=C/c2ccccc2)SC1=S)c1ccncc1,i,-0.25
O=C(O)CC(Cn1cnnn1)c1ccccc1 (configuration not stated),i,-0.22
Cc1cc([N+](=O)[O-])ccc1NC(=O)C[n+]1ccc(N(C)C)cc1,i,0.19
CC(=O)c1nn(-c2ccccc2)cc1C(=O)c1ccc(C)cc1,i,-0.36
O=C(CNc1cccc2ccccc12)N/N=C/c1ccc(C(=O)O)cc1,i,0.55
COc1ccc(S(=O)(=O)NCCSCc2cccs2)cc1,i,-1
COc1ccc(C2=C(C=Nc3c(C)n(C)n(-c4ccccc4)c3=O)C(c3ccccc3C)c3ccccc3O2)cc1OC (configuration not stated),i,0.02
Cc1ccc(-n2ncc(C(=O)N3CCN(C(=O)c4ccco4)CC3)c2C2CCN(C(=O)OC(C)(C)C)CC2)cc1C,i,-2.45
COc1ccccc1-c1nnc(SCC(=O)Nc2oc(C)c3c(C)n[nH]c(=O)c23)n1C,i,0.12
COc1cc(OC)cc(C(=O)N2CCC(C(=O)N3CCOCC3)CC2)c1,i,-0.43
C=CCNC(=S)N/N=C(\C)c1ccc(-n2ccnc2)cc1,i,-0.02
COC(=O)c1sc2ccccc2c1-n1cccc1C(=O)C(=O)Nc1ccc(Cl)cc1,i,0.71
Nc1nc2ccccc2[nH]1,i,0.26
O=C(c1cc(-c2cccc(Cl)c2)on1)N1CCOCC1,i,0.72
OC1CCCN(Cc2ccc3ccc4cccc5ccc2c3c45)C1 (configuration not stated),i,7.19
O=C(c1ccccc1)c1ccc(OCCCN2CCCC2)cc1,i,0.71
O=C(NNc1cccc(Cl)n1)c1ccccc1CC[N+](=O)[O-],i,0.45
CCCn1c2ccccc2c2cnn(CC(=O)NC3CCN(Cc4ccccc4)CC3)c(=O)c21,i,-0.15
CSCc1ccc(C(=O)N2CCCC(Nc3ccc(F)cc3)C2)o1 (configuration not stated),i,-2.54
Cc1ccc(-c2ccc(=O)n(CC(=O)N3CCN(c4cccc(C)c4)C(C)C3)n2)cc1 (configuration not stated),i,1.13
